Rce1 inhib = blocks yeast Ras-converting enzyme | yeast membranes, quenched prenylated peptide cleavage fluorescence | calls only | 290,000 tested, 0.27% active | AID 2563;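 active = fall in fluorescence gain of 50% or more versus controls, with final raw signal at or below 3038400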;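 note: plate controls were neutral control wells for no effect and wells lacking membranes for full effect; tested at 10 µM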
Target sequence (Q03530 whole entry, looked up): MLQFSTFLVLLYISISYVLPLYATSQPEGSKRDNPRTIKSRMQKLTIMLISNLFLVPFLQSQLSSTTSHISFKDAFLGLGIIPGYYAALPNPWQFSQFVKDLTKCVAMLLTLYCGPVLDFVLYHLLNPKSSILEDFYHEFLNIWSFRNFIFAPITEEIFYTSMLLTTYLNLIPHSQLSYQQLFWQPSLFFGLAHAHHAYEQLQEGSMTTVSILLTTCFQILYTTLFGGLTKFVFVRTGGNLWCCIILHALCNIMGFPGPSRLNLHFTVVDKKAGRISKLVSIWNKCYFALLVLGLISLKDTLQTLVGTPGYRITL
UUG fidelity = yeast start codon fidelity modulation. S. cerevisiae UUG-firefly luciferase reporter, luminescence/redox ratio. activity score, % at 18.7 µM. 350,000 tested, 0.13% active. AID 602363;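 active = replicate mean at a twofold rise or more, about +100% in these data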;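 note: firefly luciferase made from a UUG start codon reports start codon fidelity; reporter light over untreated wells divided by growth signal over untreated wells; some hits fall short of that in this replicate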
eIF4H FP inh = inhibitors of RNA binding by human eIF4H; 290,000 tested, 0.94% active; Q15056; eIF4H fluorescence polarization binding assay; inhibition, % at 35 µM;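 active = 50% or more with normal probe brightness, or confirmed in later tests; about a fifth of its hits are not listed in these tables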;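 note: calls also rest on retests at 20 µM and on dose response follow-up; 0% = protein and probe with vehicle and 100% = probe without protein; strong numbers were not always called active; many hits fall short of the cut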
CSC inhib = blocks cancer stem cells; cancer stem cell-like cells viability, luminescence; inhibition, % at 7.5 µM; 300,000 tested, 1.1% active; AID 2717;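 active = mean at 75% or more and at least half the replicates too; tested in HMLE shEcad cells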;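 note: 0% = median of negative and 100% = median of positive control wells; the first replicate is given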
PABP polyA inh = PABP-poly(A) binding inhibition; PABP-poly(A) RNA binding, fluorescence polarization; inhibition, % at 35 µM; 290,000 tested, 1% active; AID 2014;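 active = 50% or more with normal probe brightness, or confirmed in later tests; about a fifth of its hits are not listed in these tables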;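 note: calls also rest on retests at 20 µM and on dose response follow-up; controls were probe without protein and protein plus probe with vehicle; some compounds called inactive have numbers as strong as hits; many hits fall short of the cut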
HIV Env fusion = blocks HIV Env-driven cell-cell fusion. HeLa-JRFL Env/CEM21 cell fusion, luciferase. inhibition, % at 12.3 µM. 360,000 tested, 1.1% active;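 active = mean replicate inhibition score of at least 50 and every replicate individually at or above 50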;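 note: 0% = plate neutral controls and 100% = maraviroc near 300 nM; one replicate is shown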
MT1-MMP act inh = MT1-MMP (human) activation inhibition; 360,000 tested, 0.061% active; GFP/RFP ratio change, % at 20 µM; P50281; HT1080 RFP-PRO-GFP cells, GFP/RFP ratio fluorescence, overnight; percent of plate control window, DMSO zero; AID 651647;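 active = GFP/RFP ratio change of at least 30% with cell ATP level not reduced by more than half and red fluorescence within 50% of control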; note: strong numbers were not always called active
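Assay system: HT1080 RFP-PRO-GFP cells | Dosing: 20 µM single dose, 1% DMSO | Incubation: Cells overnight before dosing, compound overnight, 37 °C, 5% CO2 | Evaluation: GFP/RFP fluorescence ratio | Control set: DMSO-only wells and HT1080 RFP-L50D-GFP cell wells as references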
eIF4H FP inh retest = second read-out of eIF4H FP inh, no call of its own (marks repeat the call); inhibition, %; compound at 20 µM; confirmation average;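 mean of two retest wells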
PABP polyA inh retest = recorded beside PABP polyA inh, whose call it bears; inhibition, %; compound at 20 µM; confirmation repeats;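 mean of two retest wells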
MT1-MMP act inh RFP = recorded beside MT1-MMP act inh, whose call it bears; RFP signal change, %; measured here: RFP expression control read;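 0 = vehicle wells; hits needed this value within 50% of zero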
* = called active by the depositor; i = inactive; . = not tested or not shown. This is a subset; count on the stated rates, not on these rows.

SMILES	Rce1 inhib	UUG fidelity	eIF4H FP inh	CSC inhib	PABP polyA inh	HIV Env fusion	MT1-MMP act inh	MT1-MMP act inh RFP	others
O=C(CCc1ccccc1)Nc1cc(C(=O)O)cc(C(=O)O)c1	i	-9.4	-6.9	-11.6	-3.7	-12.1	0.1	1.6
O=C(c1ccccc1)c1ccc2nc(N3CCCCC3)c3nncn3c2c1	i	-18.2	1.4	1.2	1.1	6.1	-7.0	-20.2
O=C(CN1CCc2ccccc21)NCc1ccccc1Cl	i	.	-5.9	-26.7	-2.3	18.0	3.2	6.6
CCOc1ccc(CC(C(=O)NN)C(=O)NN)cc1CN(C)C	i	-14.6	3.9	6.1	-4.1	.	3.2	5.3
Cc1ccc(C)c(OCC(=O)N(C)CC(=O)Nc2ccc(Cl)c(C(F)(F)F)c2)c1	.	-16.2	.	.	.	3.1	15.1	-3.5
Cc1sc(/N=C/c2c(O)ccc3ccccc23)c(C#N)c1C	i	.	5.3	-10.9	8.1	.	.	.
CCCCc1nc(SCC(=O)Nc2cc(C)on2)n[nH]1	i	-12.6	-8.6	-22.8	12.6	.	-0.7	0.2
COc1ccc(OC)c(NC(=O)c2ccccc2NS(=O)(=O)c2cccc3cccnc23)c1	i	-18.5	-9.6	.	-0.2	.	2.8	0.7
CCN1C(=O)N[C@@H](c2cccc(F)c2)C(C(=O)OC)=C1C	i	-1.0	.	-7.8	.	4.0	1.1	-0.7
COc1cccc(/C=C2/SC(=S)N(CCCC(=O)Nc3ccc(O)cc3)C2=O)c1	i	8.9	-9.3	8.3	2.8	.	0.5	-3.9
CCN(C(=O)CN1C(=O)S/C(=C\c2cccc(OC)c2)C1=O)C1CCS(=O)(=O)C1 (stereo unspecified)	i	-8.4	-5.3	1.7	-3.5	-11.9	2.8	-2.2
CC(C)C1NC(C(=O)O)Cc2c1[nH]c1ccccc21 (stereo unspecified)	i	-13.5	22.9	-11.8	13.6	14.2	-2.9	-0.2
O=C(NCCCN1CCOCC1)C1CC(=O)N(C2CCCCC2)C1 (stereo unspecified)	i	-15.0	-4.2	6.1	-0.9	.	-0.4	1.6
CC1CCCC(C)N1CCNC(=O)C1CCN(S(=O)(=O)N2CCCCC2)CC1 (stereo unspecified)	i	-15.6	4.4	-0.7	-1.0	.	-5.8	1.8
Cc1ncc([N+](=O)[O-])n1CCOC(=O)c1cc(Cl)cc(Cl)c1N	i	.	49.0	-10.5	2.8	5.6	0.2	-4.6
CC(OC(=O)Cc1c[nH]c2ccccc12)C(=O)N(C)c1ccccc1 (stereo unspecified)	i	-25.9	.	-9.8	.	-1.2	2.2	3.2
CC(C)(C)C1CCC(C(=O)NCCc2ccc(S(N)(=O)=O)cc2)CC1 (stereo unspecified)	i	15.6	3.4	1.5	-5.4	41.2	0.8	-0.3
COc1cccc(Nc2nc(C)cc(C)c2C(N)=O)c1	i	0.8	8.1	-9.8	1.6	-14.7	0.4	2.4
CSc1ccccc1C(=O)C1CCCN(C(=O)c2cccc(Cn3cccn3)c2)C1 (stereo unspecified)	.	12.4	.	.	.	5.4	0.9	-10.2
CCCn1c(=O)c(C(=O)N/N=C/c2ccc(F)cc2)c(O)c2ccccc21	i	.	2.5	8.8	-1.5	-2.7	-5.2	-9.1
CC(C)[C@@H](CO)NC(=O)c1ccc2c3n(nc2c1)-c1ccc(Cl)cc1CO3	i	-16.7	-3.2	3.7	6.1	-128.6	-1.5	-0.2
CC(C)c1ccc(Nc2ncccc2C(=O)O)cc1	i	8.1	1.9	28.4	5.0	-46.9	0.6	0.9
CNc1cc(-c2cc(OC)ccc2OC)ncn1	.	-18.4	.	.	.	0.7	-1.9	6.1
CC1CCN(CCCn2c(SCC(=O)NC3CCCC3)nc3ccccc3c2=O)CC1	i	6.7	0.8	-21.5	-0.5	8.8	1.2	3.3
CN(CC(=O)Nc1cccc(F)c1)C(=O)c1cccc(-n2cccc2)c1	i	.	.	-1.4	.	7.7	2.0	0.4
O=C(NCc1n[nH]c(=S)n1Cc1ccccc1)c1ccccc1	i	.	-4.4	-13.2	15.2	-14.2	-0.6	-3.2
CCOC(=O)c1c(C)c(C(=O)Nc2ccc3c(c2)OCCO3)c(C)n1CC	i	-6.0	-7.4	-6.2	-3.5	-15.8	-4.0	-4.4
O=C(NCCc1ccccc1)c1c(O)c2ccccc2[nH]c1=O	i	-7.2	2.2	12.3	6.5	-30.3	-2.8	-0.3
CCCc1[nH]nc2c1C(c1ccccc1OCC)C(C#N)=C(N)O2 (stereo unspecified)	i	-14.4	-6.6	12.0	1.9	-27.8	-0.6	-0.2
Cc1cc(C)nc(NS(=O)(=O)c2ccc(N/C=C3\CCCC3=O)cc2)n1	i	-9.3	-4.0	-5.1	12.0	.	4.2	5.5
CCOC(=O)c1nn(-c2ccc(Cl)cc2)c2nc(CC)c(C#N)c(=O)n12	i	-26.8	-9.7	-5.6	-1.9	-209.2	-6.1	3.2
CCCOc1ccc(C(=O)CCC(=O)OCC(=O)Nc2cccc(S(N)(=O)=O)c2)cc1	.	-18.4	.	.	.	10.2	0.2	0.3
CCCCOC(=O)C1=C(C)NC(=O)NC1c1ccc2c(c1)OCO2 (stereo unspecified)	.	-1.3	.	.	.	-9.9	-3.9	-1.0
CC(C)(C)c1nc(C(C)(C)C)c(Br)c(=O)[nH]1	i	.	-4.7	-11.0	2.6	72.1*	9.0	-4.3
CCc1nc(SCC(=O)Nc2ccnc3ccccc23)n[nH]1	i	-13.5	0.4	.	7.3	.	2.2	-5.9
CCN1C(=O)c2ccccc2Sc2ccc(C(=O)O)cc21	i	-7.1	7.5	2.8	-3.5	13.6	-0.8	-1.2
Cc1ccccc1NC(=S)NCC(c1cccnc1)N(C)C (stereo unspecified)	i	.	-8.2	-17.6	7.9	24.6	6.7	9.8
CC(C)(Oc1ccc(Cl)cc1)C(=O)Nc1c2c(nn1C(C)(C)C)CS(=O)(=O)C2	i	1.0	.	-13.9	.	14.1	3.7	4.5
COc1ccc(C(=O)Nc2ccc3oc(-c4cccnc4)nc3c2)cc1OC	i	.	-16.2	-0.1	-15.3	12.1	6.0	-6.8
CCOc1ccc(/C=C2\SC(=S)N(NC(=O)c3ccncc3)C2=O)cc1OC	i	-25.3	34.9	-7.3	-7.0	-8.4	-17.8	6.9
O=C(CSc1nnc(-c2ccccc2)o1)N1CCCC1	i	-7.6	-4.9	5.1	1.4	-13.5	-2.6	2.5
O=C(OCC(=O)N1CCCC1)c1cncc(Br)c1	i	-18.9	-0.9	-13.1	13.2	.	-1.2	1.5
Cc1cc(C)c(C#N)c(SCS(=O)Cc2ccc(Cl)cc2)n1 (stereo unspecified)	i	-8.4	-1.1	-13.1	-3.5	.	8.8	-5.2
COc1ccccc1CNC(=O)COC(=O)c1nccnc1N	i	-10.1	8.3	32.2	15.3	-12.2	0.4	7.9
S=c1[nH]nc(COc2ccccc2)n1/N=C/c1cccc(Br)c1	i	-23.6	6.1	.	1.6	14.2	1.9	2.6
COc1cccc(OC)c1C(=O)Nc1cccc(C(=O)Nc2cccc(C(=O)O)c2)c1	i	-4.3	-9.3	-7.4	5.7	15.1	-0.8	3.0
CCOc1ccc(CCNC(=O)c2ccc(Cl)c(S(=O)(=O)N3CCOCC3)c2)cc1OCC	i	-7.0	.	-1.9	.	-2.4	1.0	-12.5
Cc1ccccc1N1CCN(C(=O)c2ccccc2NC(=O)c2ccccc2C(=O)O)CC1	i	.	-4.1	2.5	1.1	5.9	3.5	7.3
CCC(C(=O)NCC1CCCO1)N(Cc1ccc(F)cc1)C(=O)CNS(=O)(=O)c1ccccc1 (stereo unspecified)	i	-1.2	-5.0	-15.5	-7.5	25.2	-0.1	4.6
O=S(=O)(CCOc1ccccc1)N1CCOCC1	i	.	0.6	1.4	-0.5	.	1.3	3.7

By substructure, the compounds so far with bromine.
SMILES	Rce1 inhib	UUG fidelity	eIF4H FP inh	CSC inhib	PABP polyA inh	HIV Env fusion	MT1-MMP act inh	MT1-MMP act inh RFP	others
CC(C)(C)c1nc(C(C)(C)C)c(Br)c(=O)[nH]1	i	.	-4.7	-11.0	2.6	72.1*	9.0	-4.3
O=C(OCC(=O)N1CCCC1)c1cncc(Br)c1	i	-18.9	-0.9	-13.1	13.2	.	-1.2	1.5
S=c1[nH]nc(COc2ccccc2)n1/N=C/c1cccc(Br)c1	i	-23.6	6.1	.	1.6	14.2	1.9	2.6

Additional entries
SMILES	Rce1 inhib	UUG fidelity	eIF4H FP inh	CSC inhib	PABP polyA inh	HIV Env fusion	MT1-MMP act inh	MT1-MMP act inh RFP	others
O=C(NC(=S)Nc1ccc(NC(=O)c2cccs2)cc1)c1cc2ccccc2o1	i	.	96.4*	23.0	25.3*	3.8	5.1	-2.1	eIF4H FP inh retest=74.3*;PABP polyA inh retest=72.2*
CN(c1ccc(C(=O)Nc2ccc(Cl)cn2)cc1)S(=O)(=O)c1ccccc1	i	.	-1.0	9.8	-0.7	21.4	-0.2	-24.6
CC(NC(=S)Nc1cccc(C(F)(F)F)c1)C(C)(C)C (stereo unspecified)	i	-24.1	2.9	16.7	-8.6	5.7	0.1	-2.9
COc1ccc(OC)c(/C=C2\SC(=S)N(NS(=O)(=O)c3ccccc3)C2=O)c1	i	.	-4.7	3.3	-4.7	12.5	-1.8	1.7
COc1ccc(S(=O)(=O)N2CCN(c3ccc4nnc(-c5ccccc5)n4n3)CC2)cc1	i	-9.0	-3.3	-6.8	-10.9	0.1	3.5	-5.4
CC(NC(=O)c1ccco1)C(=O)N1CCc2ccccc2C1 (stereo unspecified)	i	.	-4.3	-7.7	3.0	.	0.1	1.7
NC(=S)Nc1cc(Cl)ccc1Cl	i	-18.6	1.1	-13.3	-3.1	2.5	2.1	-2.5
O=C(/C=C/c1cccc([N+](=O)[O-])c1)NCc1ccc2c(c1)OCO2	i	.	0.3	.	-3.9	.	0.5	3.0
O=C(C1CC1)N1N=C(c2cccc(Br)c2)CC1(O)C(F)(F)F (stereo unspecified)	i	-2.6	-0.3	5.1	-2.3	-15.3	-1.3	3.2
CC(C)Cn1c(O)c2ccc(C(=O)N=NC(=O)c3cccnc3)cc2c1O	i	.	-4.5	-18.1	-20.2	-4.1	-2.2	-0.7
CCCS(=O)(=O)NC(=O)C1(C)CCN(C(=O)c2nc(C)oc2C)C1 (stereo unspecified)	.	-3.3	.	.	.	14.8	2.1	6.8
COc1ccc(S(=O)(=O)N2CCCCCC2)cc1C(=O)N(C)Cc1ccc(F)cc1	i	.	.	7.6	.	15.2	0.8	-4.9
COc1ccc(S(N)(=O)=O)cc1C(=O)OCCCC(=O)c1ccccc1	.	-8.1	.	-5.7	.	.	1.3	1.8
O=C(CSc1ccc2c(c1)OCCO2)NC(=O)NC1CCCC1	i	-7.6	6.2	-0.5	17.4	-59.7	-1.0	0.1
O=C(NC1CCCCC1)C(c1ccco1)N(C(=O)c1csnn1)c1ccc(Cl)cc1 (stereo unspecified)	.	0.6	-8.1	-11.4	-5.1	31.9	-2.5	-0.6
CCOc1ccc(-n2c(-c3ccccc3)c[n+]3c2CCCCC3)cc1	i	.	-6.3	23.1	8.1	45.3	-16.2	-28.4
COC(=O)C1=C(C(=O)OC)[C@@H]2N(C)c3ccc(OC)cc3[C@@]23C[C@@H](C(=O)OC)N(C(=O)NCCBr)C3=N1	i	.	.	-6.5	.	24.6	.	.
Cc1cc(C)n2nc(SCC(=O)N(C(C)C)C(C)C)nc2n1	i	-16.4	-4.9	-7.0	-7.5	-12.6	-0.2	2.3
Cc1ccc(Cl)cc1NC(=O)c1ccccc1OCC(=O)N1CCOCC1	i	10.7	-4.1	-5.7	12.1	17.8	-1.6	2.6
